Screening results from PubChem BioAssay.
ClpP mod – qHTS Assay for Activators of ClpP | purified B. subtilis ClpP, FRET peptide cleavage, 20 min | Potency, µM (doses to about 57.5 µM), for the others: top-dose activity change, negative = active | actives 1.9% (n = 340,000); active = well fitted falling curve with a large enough effect; inconclusive = small, poorly fitted or top-dose-only effect; inactive = no such curve, though single readings can be large or run the other way; also: potency is read from the fitted curve at half-maximal effect; the source files actives as falling curves though it sought activators and does not explain the sign; nearly all actives have a fitted effect of over 65% in size; many hits overshoot -100%
Target sequence (P80244 whole entry, looked up): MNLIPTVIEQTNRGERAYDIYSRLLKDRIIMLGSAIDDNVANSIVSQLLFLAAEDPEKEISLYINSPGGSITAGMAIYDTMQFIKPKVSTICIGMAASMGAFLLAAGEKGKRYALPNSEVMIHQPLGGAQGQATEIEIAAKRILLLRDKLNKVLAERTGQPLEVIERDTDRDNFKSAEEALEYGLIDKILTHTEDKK
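FRET quenching reversal measured ClpP activation: 10 microg/mL B. subtilis ClpP at pH 8 with the FRET-FV decapeptide, read at 430 nm after 320 nm excitation. The 20-min minus 0-min signal was scaled between DMSO/no-enzyme wells and ADEP (5.8 microM final).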
TRPV1 PAM – enhances activation of the human vanilloid receptor TRPV1; Q8NER1; TRPV1-expressing cells, Fluo-8 calcium influx, capsaicin EC20 potentiation; host cell line not named in the record; control for the full effect not named in the record; potentiation, % at 8.33 µM; actives 0.02% (n = 320,000); AID 540277; active means potentiation above 80%; inconclusive means 30% to 80%; inactive means below 30%; also: 0% is about no effect
Target sequence (Q8NER1 whole entry, looked up): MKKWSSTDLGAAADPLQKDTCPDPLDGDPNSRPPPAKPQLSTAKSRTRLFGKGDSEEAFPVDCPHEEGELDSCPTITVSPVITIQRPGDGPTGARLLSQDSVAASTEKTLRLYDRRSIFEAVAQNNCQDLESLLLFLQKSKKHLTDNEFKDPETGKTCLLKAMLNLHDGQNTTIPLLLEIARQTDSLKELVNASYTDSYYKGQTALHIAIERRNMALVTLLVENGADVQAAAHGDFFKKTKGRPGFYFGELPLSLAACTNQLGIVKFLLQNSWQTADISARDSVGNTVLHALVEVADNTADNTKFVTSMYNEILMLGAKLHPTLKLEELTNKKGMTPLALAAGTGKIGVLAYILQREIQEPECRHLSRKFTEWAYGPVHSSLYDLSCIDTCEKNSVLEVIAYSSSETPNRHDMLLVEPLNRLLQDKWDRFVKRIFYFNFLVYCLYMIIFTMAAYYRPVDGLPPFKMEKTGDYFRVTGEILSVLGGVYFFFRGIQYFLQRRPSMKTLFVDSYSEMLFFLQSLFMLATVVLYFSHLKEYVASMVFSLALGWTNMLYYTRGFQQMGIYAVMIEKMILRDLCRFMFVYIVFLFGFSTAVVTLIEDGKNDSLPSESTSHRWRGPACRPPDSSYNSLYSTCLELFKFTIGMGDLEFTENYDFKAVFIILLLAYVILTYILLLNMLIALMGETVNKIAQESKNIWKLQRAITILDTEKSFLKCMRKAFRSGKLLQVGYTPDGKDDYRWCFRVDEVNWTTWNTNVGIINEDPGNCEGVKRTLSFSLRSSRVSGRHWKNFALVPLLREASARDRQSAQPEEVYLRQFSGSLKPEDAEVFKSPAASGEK
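TRPV1-expressing cells were cultured overnight at 35.5C and loaded with Fluo-8 calcium dye for 40 to 90 min at room temperature. After a 10 s baseline, compound was added and calcium influx was read kinetically for 3 min (ex 480/em 520 nm).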
gsp ag – agonists of gsp mutant (McCune-Albright syndrome); Potency, µM (titrated, usually from 76.9 µM), for inactives: at the highest dose activation (cAMP increase), actives largely listed as activators; actives 0.13% (n = 340,000); gsp mutant cells, cAMP HTRF, 30 min; control for the full effect not named in the record; AID 624287; active = well fitted activation curve with a large enough effect; inconclusive = small, poorly fitted or top-dose-only effect, or another doubt; inactive = no such curve, though single readings can be large or run the other way; cell line not stated here;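 also: phosphodiesterase inhibitor Ro 20-1724 added with compounds to block cAMP breakdown; potency is read from the fitted curve at half-maximal effect; nearly all actives have a fitted effect of over 60% in size; about a fifth of the inactives were tested at one dose only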
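Cells in DMEM/10% FBS with G418 were pretreated with compounds in DMSO plus […] (300 uM stock) for 30 min at 37C. cAMP was measured by HTRF (cAMP-d2 plus anti-cAMP antibody-K) after 30 min at room temperature.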
Menin MLL FP FL – displaces fluorescein MLL peptide from human menin; Fluorescence polarization, fluorescein-MLL peptide displacement from menin; FP activity change, % at 61.4 µM; 290,000 tested, under 10 active; AID 1766; inconclusive = falling polarisation curve, or a change in total fluorescence; inactive = total fluorescence flat and polarisation flat or rising; no compound was filed as active; the % refers to the polarisation; negative = inhibition;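 also: % of control where 0% means no effect; inhibitors lower the polarisation; unlabelled MLL peptide was the positive control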
TRPML1 inh – human mucolipin-1 channel inhibition; Q9GZU1; TRPML1-inducible cells, Ca2+ dye fluorescence, FDSS; active compounds read low; inhibition of EC80 agonist-evoked calcium signal; activity change, negative = inhibition, % (concentration not given with the values); actives 0.02% (n = 390,000); AID 624415; in the data active means activity change below about -50%; inconclusive means about -30% to -50%; inactive means above about -30%;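 also: stimulus is agonist 54-4 at its EC80 concentration; % is scaled to controls: 0 for no effect and ±100 for the full control effect; the text of the record puts the active cut at -80%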
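Calcium fluorescence in TRPML1-DL cells induced overnight with Tet: a 110 s read after compound pin addition, then a 110 s antagonist read after challenge with 54-4 at 4 uM final (EC80).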
gsp antag – antagonizes gsp, the McCune-Albright syndrome mutation; gsp-mutant cells, cAMP HTRF, 30 min; control for the full effect not named in the record; Potency, µM (highest dose often 76.9 µM), without a hit: top-dose activity change, negative = inhibition, hits mostly inhibitors; actives 0.4% (n = 340,000); AID 624288; active = falling curve of any shape with a large fitted effect; inconclusive = falling curve, mostly with a smaller effect; inactive = flat or rising curve; cell line not stated here;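 also: intracellular cAMP measured with PDE inhibitor Ro 20-1724 present during compound exposure; potency is read from the fitted curve at half-maximal effect; % is scaled to controls: 0 for no effect and ±100 for the full control effect; nearly all actives have a fitted effect of over 65% in size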
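Cells, 2000/well, grown 16–24 h in DMEM 10% FBS with 0.5 mg/ml G418, then compounds plus […] (300 uM addition stock), 30 min at 37C. cAMP read by HTRF (cAMP-d2 and anti-cAMP antibody-K in lysis buffer) after 30 min RT.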
Sfp PPTase inh – Sfp phosphopantetheinyl transferase inhibition. Biochemical Sfp PPTase activity, qHTS. Potency, µM, without a hit: max response, negative = inhibition, hits mostly inhibitors. actives 3.5% (n = 310,000). AID 1490; active = well fitted inhibition curve with a large enough effect; inconclusive = small, poorly fitted or top-dose-only effect, or another doubt; inactive = no such curve, though single readings can be large or run the other way;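 also: the enzyme is Sfp with the accession as filed and its product quenches rhodamine fluorescence; potency is read from the fitted curve at half-maximal effect; 0% = enzyme reaction without inhibitor and -100% = no enzyme wells; top concentration of the series not given in the record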
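Fluorescence-quenching assay with 15 nM Sfp, 5 uM rhodamine-CoA and 12.5 uM BHQ-2-labelled ybbR peptide in pH 7.6 Hepes/MgCl2 buffer. Enzyme was pre-incubated with compound for 15 min at room temperature. Rate was taken from the 30-min fluorescence change (525/598 nm).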
* hit, by the source's call; ? = inconclusive; nt = no result given; & = joins results of further samples; [ ] = another dose, or the depositor's remark.

Values run as follows: ClpP mod	TRPV1 PAM	gsp ag	Menin MLL FP FL	TRPML1 inh	gsp antag	Sfp PPTase inh
- Clc1ccc(/C=N/N2CCN(Cc3ccccc3)CC2)cc1
    -3.1%	27	6%	-1.8	8	2%	-4%
- COc1cccc(NC(=S)NC(C)c2ccc(OC)c(OC)c2)c1 (stereo not drawn)
    nt	2	-7%[15.4 µM]	1.4	4	nt	18%
- Cn1c(SCC(=O)Nc2cc(=O)n(C)c(=O)n2C)nnc1C12CC3CC(CC(C3)C1)C2
    nt	4	nt	2.3	nt	nt	-9%
- O=C(COC(=O)c1cnccn1)NC1CCCc2ccccc21 (stereo not drawn)
    0.7%	nt	36%	nt	-10	16%	nt
- COc1ccc(CNC(=O)Nc2ccc(C)cc2)cc1
    -2.9%	-6	6%	0.7	-6	4%	?
- Cc1ccc2[nH]c3c(N4CCc5ccccc5C4)ncnc3c2c1
    -3.8%	6	1%[15.4 µM]	0.5	8	?	2%
- Cc1ccc(CN(C)C(=O)c2cccc(S(=O)(=O)N3CCCC3)c2)cc1
    0.1%	-34	?	nt	21	-10%	nt
- CCCCCCCCC(=O)N/N=C(\C)c1ccco1
    0.5%	-14	-14%	4.2	6	10%	13%
- COc1ccc(C(=O)c2c(C)c(CCC#N)n3ccccc23)c(OC)c1
    nt	7	-19%	-3.8	21	-6%	1%
- S=C(NCC1CCCO1)Nc1ccc(Cl)cc1 (stereo not drawn)
    -0.8%	-4	-43%[inhibitor]	-0.3	-21	9%	4%
- COc1ccc(CN(C)CC(=O)Nc2ccccc2-c2ccccc2)c(OC)c1
    nt	19	-35%[inhibitor]	-0.8	-2	-30%	12%
- O=C(Nc1ccc(F)cc1F)c1cccn1-c1ncc(C(F)(F)F)cc1Cl
    -0.6%	nt	38%	1.9	-10	-5%	13%
- CCCCCCCCCCCCCCCC[N+](C)(C)CCl
    2.1%	nt	13%	nt	-6	17%	nt
- COc1ccccc1C1C(C(=O)c2cc3ccccc3o2)=C(O)C(=O)N1CCN1CCOCC1 (stereo not drawn)
    -12%	11	?	-2.9	20	13%	-22%
- CC1(C)OC2OC(C3COC(=O)O3)C(OC(=O)c3ccccc3)C2O1 (stereo not drawn)
    nt	nt	5%	nt	-4	1%	nt
- O=C1c2ccccc2NC(c2ccc(-c3cccc([N+](=O)[O-])c3)o2)N1O (stereo not drawn)
    -3.1%	-1	-31%[inhibitor]	2.2	16	-16%	3%
- CC1C(C)N(C(=O)CCl)c2ccccc2N1C(=O)CCl (stereo not drawn)
    0.7%	nt	-1%[15.4 µM]	nt	-2	1%	nt
- CSCC[C@H](NC(=O)C1CCN(S(=O)(=O)c2ccc(C)cc2)CC1)C(=O)NC1CCS(=O)(=O)C1 (stereo partly drawn)
    -4.4%	0	-4%[15.4 µM]	1.9	-5	10%	1%
- CCOCCCn1c(=N)c(C(=O)NCCN2CCOCC2)cc2c(=O)n3cccc(C)c3nc21
    ?	-2	?	2.5	9	5%	5%
- Cc1ccc(Cl)cc1NC(=O)CCCN1C(=O)c2cccnc2C1=O
    nt	2	22%[15.4 µM]	-0.5	-3	-5%	14%
- COc1ccccc1CNC(=O)C1=C(C)C(=O)OC12CCC(C)CC2 (stereo not drawn)
    0.2%	-13	-87%[inhibitor]	0.4	11	5%	7%
- COc1ccc2[nH]c3c(c2c1)CCN1C(=O)C(CC(=O)NCCN2CCOCC2)C[C@H](C(=O)N2CCCCC2)[C@@]31CCc1ccccc1 (stereo partly drawn)
    1.4%	nt	nt	nt	18	11%	nt
- Cc1cccn2c(=O)c(/C=C(\C#N)C(=O)NCc3ccccc3)c(N3CCC(C(N)=O)CC3)nc12
    nt	-2	-5%[15.4 µM]	4.4	12	-6%	16%
- O=C(CN1C(=O)C2C3C=CC(C3)C2C1=O)NCc1ccco1 (stereo not drawn)
    2.0%	-3	-17%	-1.3	-18	5%	-15%
- CC(=O)Nc1sc(N/N=C/c2ccc(N(C)C)cc2)nc1-c1ccc(C)cc1
    4.2%	-1	-9%	2.8	5	-12%	13%
- Cc1cn(C(=O)CN2C(=O)c3ccccc3C2=O)c(C)n1
    -2.5%	6	-3%[15.4 µM]	6.2	14	8%	18%
- Clc1ncccc1OCc1ccccc1
    1.0%	nt	0%[15.4 µM]	nt	-7	15%	nt
- COC(=O)c1cc(-c2cccc([N+](=O)[O-])c2)c2c(=O)[nH]c(=O)n(C)c2n1
    nt	2	-16%	9.4	-4	-6%	7%
- COC(=O)C(C)Oc1ccc2cc(-c3ccccc3)c(=O)oc2c1 (stereo not drawn)
    nt	6	9%	-0.9	8	-17%	2%
- C[C@H](CO)N1C[C@H](C)[C@H](CN(C)Cc2ccncc2)OCc2ccccc2-c2c(n(C)c3ccccc23)C1=O
    -0.2%	nt	5%	nt	-4	nt	nt
- N#Cc1c2n(c(=S)n(-c3ccccn3)c1=O)CCCCC2
    -8.4%	3	3%	3.3	-17	0%	12%
- COc1cccc2cc(C(=O)C3=C(O)C(=O)N(CCN4CCOCC4)C3c3ccc(Cl)cc3)oc12 (stereo not drawn)
    nt	4	2%[15.4 µM]	6.5	10	5%	3%
- CCSc1nnc(NC(=O)C(Cc2ccccc2)n2cccc2)s1 (stereo not drawn)
    2.3%	0	21%	-0.6	-8	1%	21%
- COc1ccccc1OCCC(=O)OCC(=O)Nc1cc(S(=O)(=O)N2CCOCC2)ccc1Cl
    -0.8%	0	?	-0.1	23	-13%	15%
- Cn1c(=O)[nH]c2c(c1=O)CCO2
    -5.2%	nt	21%	nt	0	-8%	nt
- Cc1cc(-c2cccs2)c2c(n1)sc1c(=O)[nH]c(=O)[nH]c12
    -7.6%	-1	?	2.2	-11	-5%	13%
- C(=N\n1cnnc1)/c1ccc(OCc2cccc3ccccc23)cc1
    11%	-3	-9%	1.4	-15	-1%	-19%
- N#Cc1nc(COc2ccccc2Cl)oc1NCc1cccnc1
    -7.5%	?	5%	1.0	12	-9%	3%
- CCc1nc2cccnc2n1-c1ccc(C(=O)O)cc1
    -5.8%	6	?	?	5	11%	?
- Cc1ccc(S(=O)(=O)N(Cc2n[nH]c(=S)n2-c2ccccc2)c2ccccc2)cc1
    nt	-5	-23%[15.4 µM]	-0.8	17	-21%	-1%
- Cc1cc(C)nc(N/N=C/c2ccccc2)n1
    -2.7%	-9	11%	0.2	-8	0%	?
- Cc1nc(SCC(=O)Nc2cccc(C(=O)O)c2)n[nH]1
    -3.2%	2	-27%	-2.5	-15	4%	17%
- COc1ccc(Cn2c(=O)[nH]c3cc(C(=O)NC4CCN(Cc5ccccc5)CC4)ccc32)cc1
    nt	6	4%	1.7	-19	5%	18%
- CC1CCc2nn(CC(=O)NCCCN3CCCC3=O)cc2C1 (stereo not drawn)
    0.6%	-7	?	-1.8	-5	6%	-1%
- O=C(C1=C[C@H](c2csc3ccccc23)C[C@H](OCc2ccc(CO)cc2)O1)N1CCOCC1
    -1.1%	-5	nt	-0.9	1	-25%	-4%
- COc1ccc(CC(=O)Nc2cc(S(=O)(=O)N3CCCCC3)ccc2OC(C)C)cc1OC
    1.8%	nt	-43%[inhibitor]	nt	13	nt	nt
- CCn1c(SCC(=O)c2cccs2)nnc1-c1cccs1
    -1.1%	-7	-7%	-2.2	-10	-5%	8%
- Cc1c(Br)cc(C(=O)O)c(C)c1C
    1.3%	-1	-21%	-0.4	1	-3%	10%
- CCN1CCN(c2ccc(NC(=O)c3ccc4c(c3)OCCO4)cc2C)CC1
    nt	-10	-10%[15.4 µM]	nt	30	14%	nt
- Cc1occc1-c1nnc(SCc2nnc(-c3ccc(Cl)cc3)o2)n1C
    -0.3%	6	-13%	-0.4	8	3%	-29%
- Cc1cc(N/N=C\c2ccc(Br)cc2)nc(-n2nc(C)cc2C)n1
    nt	7	17%	1.0	-1	5%	9%
- COc1ccc(-n2cc(-c3ccccc3)c3c(=O)[nH]cnc32)cc1
    -8.5%	-2	-8%[15.4 µM]	11	53	-17%	-5%
- COc1ccc2c(=O)cc(-c3ccccc3F)oc2c1
    0.9%	-17	6%[15.4 µM]	4.5	6	-35%	-7%
- CCC(=O)Nc1cc(C(F)(F)F)ccc1N1CCCC1
    -1.0%	-9	1%[15.4 µM]	-0.2	1	4%	?
- Cc1ccc2nc(Cl)c(/C=C/C(=O)c3ccco3)cc2c1
    -1.5%	0	-23%[15.4 µM]	16	-17	0%	-4%
- Cc1ccc(Cl)cc1N1CCN(S(=O)(=O)c2ccc3c(c2)oc(=O)n3C)CC1
    -1.8%	-5	9%	0.1	48	6%	26%
- C[C@H]1C=CC(=O)C[C@H]1c1c(F)cccc1Cl
    nt	nt	nt	2.4	36	nt	-6%
- O=C1[C@H](Cc2ccccc2)NCCCC[C@H](c2ccco2)N1Cc1ccccc1
    -3.1%&0.2%	nt	nt	nt	72	-15%	nt
- Cn1c(N)c(C(=O)COC(=O)c2cc(C(F)(F)F)nc3ccccc23)c(=O)n(C)c1=O
    nt	0	nt	-2.1&1.4	nt	nt	22%&9%
- CCCCn1c(N)c(N(CCC(C)C)C(=O)c2cc(Cl)nc3ccccc23)c(=O)[nH]c1=O
    -2.6%	-2	-1%	nt	-4	7%	nt

The list continues.
Values run as follows: ClpP mod	TRPV1 PAM	gsp ag	Menin MLL FP FL	TRPML1 inh	gsp antag	Sfp PPTase inh
- Cc1cccc(NC(=O)c2sc3ncn(CC(=O)N4CCN(c5ccccn5)CC4)c(=O)c3c2C)c1
    -0.7%	19	-22%	nt	23	?	-4%
- COC(=O)C(CC(=O)O)NCc1ccco1 (stereo not drawn)
    0.4%	-3	-8%	0.7	10	7%	?
- CC(NC(=O)c1ccccc1Cl)C(=O)NCc1cccs1 (stereo not drawn)
    -0.4%	6	8%	nt	3	0%	nt
- COc1ccc(OCC(=O)NCC(c2ccc(OC)cc2)N2CCCCC2)cc1 (stereo not drawn)
    1.4%&-0.4%	-6	35%	3.0	2&-20	-6%	5%
- CC(=O)C1CCC2C3CCC4=CC(=O)CCC4(C)C3(F)C(O)CC12C (stereo not drawn)
    0.9%	nt	0%	nt	7	-7%	nt
- CC1(C)CC(=O)C/C(=N\NC(=S)NCc2ccccc2)C1
    0.5%	16	4%	0.2	-9	8%	-15%
